Screening results: PubChem, National Center for Advancing Translational Sciences (NCATS)
Vaccinia Venus = qHTS for Stage-Specific Inhibitors of Vaccinia Orthopoxvirus: Venus Reporter Primary qHTS | Vaccinia virus Venus reporter expression, fluorescence | Potency, µM (highest dose often 36.5 µM), inactives show at the top dose activity change, negative = inhibition, hits mostly inhibitors | hit rate 0.46% among 330,000; active means well fitted inhibition curve with a large enough effect; inconclusive means small, poorly fitted or top-dose-only effect; inactive means no such curve, though single readings can be large or run the other way; tested in A549 cells; also: nearly all actives have a fitted effect of over 30% in size; inactives centre near -10
Vaccinia mCherry = qHTS for Stage-Specific Inhibitors of Vaccinia Orthopoxvirus: mCherry Reporter Primary qHTS. AID 720579, 2013. Potency, µM (highest dose often 36.5 µM), for the others: at the top dose activity change, negative = inhibition, actives largely listed as inhibitors. hit rate 0.63% among 310,000. Vaccinia virus mCherry reporter infection, fluorescence; about a quarter of the inactives have no number; active = well fitted inhibition curve with a large enough effect; inconclusive = small, poorly fitted or top-dose-only effect; inactive = no such curve, though single readings can be large or run the other way; tested in A549 cells; also: nearly all actives have a fitted effect of over 35% in size; inactives centre near -10
Active calls of the source: *; i = inactive; ? = inconclusive; . = no result given; [ ] = dose if it differs, or a comment. % is scaled to controls: 0 for no effect and ±100 for the full control effect; potency is read from the fitted curve at half-maximal effect.

SMILES | Vaccinia Venus | Vaccinia mCherry
CCC(Cc1ccccc1)NC(=O)C1=C(C)C(=O)OC12CCC(C)CC2 (centres undefined) | -12.6% | i
COc1ccc(S(=O)(=O)N2CCC(C(=O)NCc3ccncc3)CC2)cc1Cl | -5.1% | -7.9%
CCNc1nc(NCC)nc(OCCOC(=O)Nc2ccccc2)n1 | -9.9% | i
Cc1nn(Cc2ccc(C(=O)NN)cc2)c(C)c1Cl | -10.2% | -11.2%
CCc1ccc(NC(=O)C2CCN(S(=O)(=O)c3ccc4[nH]c5c(c4c3)CCCCC5)CC2)cc1 | -21.5% | i
O=C(NCc1ccc(F)cc1)c1cc(C2CCCCN2S(=O)(=O)c2cccs2)on1 (centres undefined) | -7.9% | -11.3%
O=C(O)c1ccccc1C(=O)NCc1cccnc1 | -21.9% | .
Cc1nc(C(=O)O)cc2c1[nH]c1ccccc12 | -4.7% | -3.2%
Cc1nn(Cc2ccccc2)c2c1C(c1ccncc1)C(C#N)=C(N)O2 (centres undefined) | -8.0% | -22.8%
CN(C(=O)Nc1cnc2ccccc2c1)c1ccccc1 | -6.6% | i
COc1ccc(C2c3ccc4ccccc4c3Oc3ncn(CCN(C)C)c(=N)c32)cc1 (centres undefined) | ? | ?
CCCc1nc2sc3c(c2c(=O)n1N)CCC3 | -26.4% | .
CCC(C)(C)NC(=O)C(c1ccc(F)cc1)N(Cc1cccs1)C(=O)c1cnccn1 (centres undefined) | -8.0% | -3.3%
COc1ccc2c3c([nH]c2c1)[C@H]1C[C@H]2[C@H](C[C@@H](O)[C@H](OC)[C@H]2C(=O)O)CN1CC3 | 2.6% | -8.1%
CC(C)(C)C(=O)NCCc1nc2ccccc2n1CC(=O)c1ccc(Cl)cc1 | -21.8% | i
CCN(CC)S(=O)(=O)c1ccc(O)c(C(=O)OCC(=O)N2c3ccccc3CC2C)c1 (centres undefined) | -17.9% | -19.3%
O=C(O)c1ccc(N2CCN(C(c3ccccc3)c3ccccc3)CC2)c([N+](=O)[O-])c1 | -1.9% | -7.6%
COC(=O)c1nnn(-c2nonc2N)c1CN1CCCC1 | -8.4% | i
CCN(C(=O)CSc1ccc2ccccc2n1)C1CCS(=O)(=O)C1 (centres undefined) | 0.9% | i
COc1cccc(N2CCN(c3ncc4c(n3)CCN(Cc3ccc(Br)cc3)C4)CC2)c1 | -22.6% | -22.1%
CC1(C)Cc2ccccc2C2CC(O)C(=O)N21 (centres undefined) | 16.9% | i
Cn1cnnc1Sc1ccc(C(=O)NCCC23CC4CC(CC(C4)C2)C3)cc1[N+](=O)[O-] | -19.6% | -16.7%
CCOc1ccc(S(=O)(=O)NCCC(=O)NCc2ccncc2)cc1 | -12.7% | -13.8%
O=C(NCCc1nnc2n1CCN(Cc1ccc(F)c(F)c1)CC2)c1ccoc1 | -7.1% | -9.4%
CCN1CCN(C(c2cccc(OC)c2OC)c2nnnn2Cc2ccco2)CC1 (centres undefined) | -1.7% | -5.2%
COc1cc2c(cc1OC)CN(C(=O)CSc1nnc(C)s1)CC2 | -12.3% | -23.5%
O=C(CSc1nncs1)NC(=O)NCc1ccccc1 | -9.8% | -0.6%
O=C(Cn1c(=O)n(-c2ccc(F)cc2)c(=O)c2sc3ccccc3c21)NC1CCCC1 | -6.0% | 0.1%
O=C(O)CCCc1c(-[n+]2ccccc2)[nH]c2ccccc12 | 5.0% | i
O=C(CSc1nc2ccccc2c(=O)n1CCCO)NCc1ccccc1 | -7.5% | -7.5%

Overlap with the part before: three entries, then new ones.
SMILES | Vaccinia Venus | Vaccinia mCherry
O=C(Cn1c(=O)n(-c2ccc(F)cc2)c(=O)c2sc3ccccc3c21)NC1CCCC1 | -6.0% | 0.1%
O=C(O)CCCc1c(-[n+]2ccccc2)[nH]c2ccccc12 | 5.0% | i
O=C(CSc1nc2ccccc2c(=O)n1CCCO)NCc1ccccc1 | -7.5% | -7.5%
O=C(CO/N=C/c1ccc(Cl)cc1Cl)NNC(=O)c1cccc(Cl)c1 | -6.9% | i
CC1Oc2ccccc2C=C1/C=N/NC(=O)c1ccccc1O (centres undefined) | -12.6% | -28.2%
CC(=O)Nc1ccc(/C=C/c2ccc3cccc([N+](=O)[O-])c3n2)cc1 | -11.6% | ?
CCC(=O)N1CCCC1(C)C(=O)Nc1ccc(OC(F)F)cc1 (centres undefined) | -0.8% | -3.8%
CCOC(=O)C1=C(O)CSC1=Nc1cccc2ccccc12 | -13.3% | -25.5%
Fc1ccccc1N1CCN(Cc2cc(-c3ccccc3)on2)CC1 | -24.4% | i
CCc1ccc(-c2cc(C)no2)cc1S(=O)(=O)N1CCN(c2ccc(OC)cc2)CC1 | -14.1% | -14.9%
CC(C)Cn1c2c(c(O)c(C(=O)Nn3c(Cc4ccccc4)nc4ccccc4c3=O)c1=O)CCCC2 | 1.6% | i
Cc1ccc(Nc2nc3ccccc3c(=O)[nH]2)cc1C | -18.0% | -5.5%
CCOc1ccc(C2C(C(=O)c3ccco3)=C(O)C(=O)N2Cc2cccnc2)cc1OC (centres undefined) | -7.8% | .
CC(C)C(=O)N1CCC2(CC1)Oc1ccc(F)cc1C(=O)C21CC(c2ccc(Cl)cc2)=NO1 (centres undefined) | -16.6% | -12.5%
COc1cccc(NC(=O)CCNC(=O)c2ccccc2Cl)c1 | 1.4% | -0.5%
CCc1ccccc1NC(=O)Nc1ccc(F)cc1F | -17.7% | i
Cc1cc(N2C(=O)C(O)=C(C(=O)c3ccco3)C2c2cccc(Oc3ccccc3)c2)no1 (centres undefined) | 3.0% | i
C=CCn1c(SCn2nnc3ccccc3c2=O)nnc1-c1ccc(F)cc1 | -18.6% | -19.2%
OCCN1CCN(CC(O)COc2ccc(Cl)cc2)CC1 (centres undefined) | -13.1% | .
Cc1ccc(C)c(CN2C(=O)C(O)(c3c(C)[nH]c4ccccc34)c3ccccc32)c1 (centres undefined) | -2.1%[7.34 µM] | -8.8%[7.34 µM]
OCC1(Cc2ccccc2)CCCN(Cc2ccc(-c3ccco3)cc2)C1 (centres undefined) | -12.0% | -17.6%
CCC(c1nnnn1C(C)(C)CC)N(CCCO)Cc1cc2cccc(C)c2[nH]c1=O (centres undefined) | -26.6% | .
Cc1ccc(-n2nc(C(=O)N(C)c3ccc(C)c(C)c3)c3c4ccccc4n(C)c3c2=O)cc1 | -13.6% | -7.5%
O=C(CCCn1nnnc1CN1CCOCC1)N1CCC(c2ccc(F)cc2)C1 (centres undefined) | -13.0% | -13.6%
Cc1ccc(S(=O)(=O)NCC(NCc2ccc(F)cc2)c2ccccc2)cc1 (centres undefined) | -16.9% | -0.4%
Cn1c2ccccc2c(=O)c2c(O)cccc21 | -10.0% | i
Cc1ccc(NC(=O)C2CC(=O)N(Cc3ccccc3)C2)cc1S(=O)(=O)N1CCCCCC1 (centres undefined) | ? | ?
CN1C(C(=O)c2ccccc2)=C(NC(=O)c2ccccc2Br)c2ccccc2S1(=O)=O | -14.1% | -14.0%
Cc1cc(=O)[nH]c(SCC(=O)Nc2ccnc3ccccc23)n1 | 4.1% | -1.7%
CCOc1ccc(Nc2ccc3nonc3c2[N+](=O)[O-])cc1 | -11.8% | -11.8%
CCCCOc1ccc(C(=O)N2CC(=O)Nc3ccc(Br)cc3C2c2ccc(F)cc2)cc1 (centres undefined) | ? | ?
CCCn1c(N)c(C(=O)CSc2nc(C)cs2)c(=O)[nH]c1=O | -19.7% | .
CCN1CCC(NC(=O)Nc2cccc(C(F)(F)F)c2)CC1 | -4.7% | ?
CCN(CC)S(=O)(=O)c1ccc(C(=O)NCCSc2c(-c3ccccc3)[nH]c3ccccc23)cc1 | ? | ?
CN(C)c1ccc(-c2nc(NCc3cccnc3)c3ccccc3n2)cc1 | ? | ?
CCCCN(C)c1c(C)nc2ccc(C(=O)NCc3ccc4c(c3)OCO4)cn12 | 13.3% | 40.1%[activator]
CSCC[C@H](NC(=O)N1CCn2c1nc1ccccc12)C(=O)NC1CCCCC1 | -21.1% | i
CCCCCc1ccc(-c2ccc(Br)cc2)nc1 | 13.8% | 2.7%
C/C(=C\C(=O)c1ccc(Br)cc1)Nc1ccc(Cl)cc1 | -12.9% | i
CCOC(=O)c1nn(C)c(C)c1Cl | -14.8% | i
Cc1ccccc1NC(=O)C(C)c1ccc(-c2ccccc2)c(F)c1 (centres undefined) | -20.3% | .
Cc1ccc(S(=O)(=O)N(CC(=O)NCCSc2ccccn2)c2ccc(C)c(C)c2)cc1 | -23.5% | -13.3%
COC(=O)c1nnn(-c2cccc(C)c2)c1C(=O)OC | -1.7% | -9.2%
O=C(Nc1ccccc1F)c1ccc(-n2cncn2)nc1 | -11.3% | -8.6%
Cc1cc2oc(C(=O)N(Cc3cccs3)C3CCS(=O)(=O)C3)cc(=O)c2cc1Cl (centres undefined) | -23.0% | -5.4%
COC(=O)c1cc(OC)c(OC)cc1NC(=O)CSc1ccccc1 | -22.1% | -23.3%
COC(=O)[C@H](Cc1ccccc1)NC(=O)Nc1ccc(OC)cc1 | -5.9% | i
Cc1cccc(Nc2nc(N)c([N+](=O)[O-])c(N3CCOCC3)n2)c1 | -29.3% | ?
CCOC(=O)c1ccccc1NC(=O)CSc1c(C)cnc2c1c(=O)n(C)c(=O)n2C | -13.8% | -11.2%
CC(C)(OC(=O)c1cccs1)c1cc2ccccc2c(=O)o1 | -3.7% | i
CC(O)Cn1c(=O)c2c(nc(Br)n2Cc2ccccc2)n(C)c1=O (centres undefined) | -18.5% | -3.7%
COc1cc(S(=O)(=O)NCCN2CCOCC2)ccc1-n1cnnn1 | -2.7% | i
CN1C(=O)[C@H](Cc2ccc([N+](=O)[O-])cc2)NC1=S | -16.2% | i

(next part)
SMILES | Vaccinia Venus | Vaccinia mCherry
O=C(COC(=O)c1ccc(S(=O)(=O)N2CCOCC2)cc1)NCc1cccs1 | -2.5% | -2.5%
CC1=C(C(=O)Nc2ccccn2)C(c2ccc(Cl)cc2)NC(=S)N1 (centres undefined) | -6.5% | -8.2%
NC(=S)N=Nc1c(O)n(C2OC(=O)c3ccccc32)c2ccccc12 (centres undefined) | ? | -8.4%
Cc1ccc(NS(=O)(=O)c2cccc(C(=O)Nc3cccnc3)c2)c(C)c1 | -24.4% | -24.6%
CCOC(=O)N1CCN(S(=O)(=O)c2ccc(OCC)cc2)CC1 | -12.5% | -17.2%
Cn1c(=O)[nH]c(=O)c2c1nc(Br)n2CCSc1ncccn1 | 2.8% | -1.5%
COCCN(C)C(=O)CC1C(=O)NCCN1CC(c1ccccc1)c1ccccc1 (centres undefined) | -17.7% | ?
COCC(=O)N1CCCC(C(=O)c2ccc(-c3ccccc3)c(F)c2)C1 (centres undefined) | -9.8% | -9.7%
COc1ccc(N(C(=O)Nc2ccc(Cl)cc2)C2=NCCC2)cc1 | -21.6% | -2.2%
CCSc1ncc(Cl)c(C(=O)Nc2c(C(=O)Nc3cccc(C)c3)oc3ccccc23)n1 | -5.6% | -9.5%
Cc1cccc(NC(=S)NC2CCSc3ccccc32)c1 (centres undefined) | -27.4% | -21.6%
CC(C)n1cc(C(=O)N2CCCC(N3CCN(c4ccc(F)cc4)CC3)C2)cn1 (centres undefined) | -15.5% | -15.2%
O=C(O)c1ccn2c(C(=O)c3ccc(Cl)cc3)c(-c3ccccc3)cc2c1 | 4.0% | i
CCOC(=O)c1c(S(=O)(=O)NCC(=O)N2CCN(c3ccccc3)CC2)c(C)n(C)c1C | 0.6% | -4.6%
C=C1[C@@H](O)CN(Cc2ccc(OC)cc2)S1(=O)=O | 28.2µM* | ?
CC1(C(=O)Nc2ccc(Cl)c(Cl)c2)CCN1C(=O)C1CCCCC1 (centres undefined) | -21.5% | -0.1%
CC1(C)Cc2cccc(OC(=O)NCCc3ccc(F)cc3)c2O1 | 0.7% | 32.3%[activator]
O=C1N/C(=C/c2ccco2)C(=O)N1Cc1ccccc1F | -3.6% | -11.2%
CS(=O)(=O)N1CCN(c2ccc(NC(=O)CSc3nnc(-c4ccco4)o3)cc2)CC1 | 1.9% | i
COc1ccc(CC(=O)NNC(=S)Nc2ccccc2)cc1Cl | 12.0% | i
Cc1cc(C)c2sc(N(CCCN(C)C)C(=O)c3ccc(S(=O)(=O)N(C)Cc4ccccc4)cc3)nc2c1 | ? | -17.0%
CCC(C(=O)N1CCC2(CC1)OCCO2)n1c2ccccc2c2nc(=O)cc(C)n21 (centres undefined) | -20.6% | -3.9%
Cc1ccc(S(=O)(=O)N2CCC(C(=O)OCC(=O)N(C)c3ccccc3)CC2)cc1C | -12.3% | -20.3%
CC(/C=N/NC(=O)Cn1nnc(N)n1)=C\c1ccc(C(C)C)cc1 | -16.2% | 4.8%
Cc1ccc(S(=O)(=O)Nn2c(C)nnc2-n2nc(C)cc2C)cc1 | -9.4% | .
COC(=O)/C=C1\S/C(=N/N=C/c2ccc(Cl)cc2)NC1=O | -20.9%[7.34 µM] | -1.8%[7.34 µM]
N#Cc1c(Br)n(C2OC(CO)C(O)C2O)c2ncnc(N)c12 (centres undefined) | 12.6µM* | ?
Fc1ccc(Cn2nnnc2CN2CCN(C3CCCC3)CC2)cc1 | -6.8% | .

Shown with each value named: part of the list above
structure: Cc1cc(C)c2sc(N(CCCN(C)C)C(=O)c3ccc(S(=O)(=O)N(C)Cc4ccccc4)cc3)nc2c1
- Vaccinia Venus: ?
- Vaccinia mCherry: -17.0%

structure: CC(/C=N/NC(=O)Cn1nnc(N)n1)=C\c1ccc(C(C)C)cc1
- Vaccinia Venus: -16.2%
- Vaccinia mCherry: 4.8%

structure: CCC(C(=O)N1CCC2(CC1)OCCO2)n1c2ccccc2c2nc(=O)cc(C)n21 (centres undefined)
- Vaccinia Venus: -20.6%
- Vaccinia mCherry: -3.9%

structure: Fc1ccc(Cn2nnnc2CN2CCN(C3CCCC3)CC2)cc1
- Vaccinia Venus: -6.8%
- Vaccinia mCherry: .
